# High-throughput results (PubChem)
# gsp antag: antagonizes gsp, the McCune-Albright syndrome mutation; Potency, µM (series often up to 76.9 µM), inactives show at the top dose activity change, negative = inhibition, usual class: inhibitors; gsp-mutant cells, cAMP HTRF, 30 min; control for the full effect not named in the record; actives 0.4% (n = 340,000); AID 624288; active = falling curve of any shape with a large fitted effect; inconclusive = falling curve, mostly with a smaller effect; inactive = flat or rising curve; cell line not stated here;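 further: intracellular cAMP measured with PDE inhibitor Ro 20-1724 present during compound exposure; potency means the concentration at half of the fitted maximal effect; on the % scale 0 is the no-effect control and ±100 the full control effect; nearly all actives have a fitted effect of over 65% in size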
#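 G418-selected cells were plated in DMEM/10% FBS for 16-24 h at 37C, then treated with compounds plus the PDE inhibitor […] (300 uM solution added) for 30 min at 37C. Intracellular cAMP was measured by HTRF after 30 min lysis at room temperature.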
# Sfp inh: Sfp phosphopantetheinyl transferase inhibition; AID 1490; actives 3.5% (n = 310,000); Q9F4F7; Potency, µM, inactives show max response, negative = inhibition, actives largely listed as inhibitors; Biochemical Sfp PPTase activity, qHTS; active means well fitted inhibition curve with a large enough effect; inconclusive means small, poorly fitted or top-dose-only effect, or another doubt; inactive means no such curve, though single readings can be large or run the other way;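 further: the enzyme is Sfp with the accession as filed and its product quenches rhodamine fluorescence; potency means the concentration at half of the fitted maximal effect; 0% = enzyme reaction without inhibitor and -100% = no enzyme wells; top concentration of the series not given in the record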
#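 Reaction rates are the 30-min fluorescence difference (ex 525, em 598 nm) in wells containing 15 nM Sfp, 5 uM rhodamine-CoA and 12.5 uM BHQ-2-YbbR at pH 7.6 with 10 mM MgCl2.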
# Menin-MLL FL inh: inhibitors of human menin-MLL interaction, wild-type MLL peptide | FP activity change, % at 61.4 µM | AID 1766 | Fluorescence polarization, fluorescein-MLL peptide displacement from menin | 290,000 tested, under 10 active; inconclusive = falling polarisation curve, or a change in total fluorescence; inactive = total fluorescence flat and polarisation flat or rising; no compound was filed as active; the % refers to the polarisation; negative = inhibition;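 further: % of control where 0% means no effect; inhibitors lower the polarisation; unlabelled MLL peptide was the positive control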
# D2 ag: agonists of human D2 dopamine receptor (beta-arrestin). P14416. DiscoveRx PathHunter D2 beta-arrestin, luminescence, 90 min; 100% = 57 uM dopamine signal. activation, % (no concentration beside the values). actives 0.084% (n = 360,000); in the data active = activation above about 40%; inconclusive = about 15% to 40%; inactive = below about 15%; further: compound concentration not given in the record; the text of the record calls up to 30% inactive
# Target sequence (P14416 whole entry, looked up): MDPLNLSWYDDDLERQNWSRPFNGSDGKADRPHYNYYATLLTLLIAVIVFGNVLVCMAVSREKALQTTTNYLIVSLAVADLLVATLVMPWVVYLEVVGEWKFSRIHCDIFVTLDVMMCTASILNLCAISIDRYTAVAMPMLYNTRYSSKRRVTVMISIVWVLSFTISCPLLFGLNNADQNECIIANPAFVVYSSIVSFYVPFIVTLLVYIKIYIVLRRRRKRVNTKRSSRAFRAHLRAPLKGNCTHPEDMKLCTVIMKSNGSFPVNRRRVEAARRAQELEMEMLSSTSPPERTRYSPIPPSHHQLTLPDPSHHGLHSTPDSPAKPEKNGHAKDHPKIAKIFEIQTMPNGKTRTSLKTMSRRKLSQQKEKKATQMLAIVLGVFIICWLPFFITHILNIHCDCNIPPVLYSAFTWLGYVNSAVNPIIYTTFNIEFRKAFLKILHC
#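 DiscoveRx PathHunter D2 beta-arrestin cells (2,100/well) attached overnight, then compound-stimulated 90 min at 37 C in HBSS/10 mM HEPES/0.1% Tween-20 buffer; beta-galactosidase complementation read by luminescence after 1 h at ambient temperature. Dopamine 57 uM final (EC100) as control.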
# PINK1 modulator: changes PINK1 expression; PINK1 immunofluorescence, high-content cytometry, 24 h; Potency, µM (doses to about 76.6 µM), inactives show at the top dose activation (PINK1 increase), usual class: activators; actives 0.2% (n = 410,000); active = well fitted activation curve with a large enough effect; inconclusive = small, poorly fitted or top-dose-only effect; inactive = flat fitted curve, though single readings scatter; cell line not stated here;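 further: potency means the concentration at half of the fitted maximal effect; % of control where 0% means no effect; nearly all actives have a fitted effect of over 65% in size; a mitochondrial uncoupler was the plate control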
#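 Fluorescence from anti-PINK1 antibody, together with nuclear and cell stains, was scanned on a laser-scanning cytometer. Before staining, stable-line cells were incubated 24 hours with compounds at 5 concentrations; primary antibody 12 h at 10 degrees C.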
# ClpP mod: qHTS Assay for Activators of ClpP; ATP-dependent Clp protease proteolytic subunit (Bacillus subtilis (strain 168)), P80244; Potency, µM (series often up to 57.5 µM), without a hit: top-dose activity change, negative = active; purified B. subtilis ClpP, FRET peptide cleavage, 20 min; AID 651965, 2013; actives 1.9% (n = 340,000); active = well fitted falling curve with a large enough effect; inconclusive = small, poorly fitted or top-dose-only effect; inactive = no such curve, though single readings can be large or run the other way; further: potency means the concentration at half of the fitted maximal effect; the source files actives as falling curves though it sought activators and does not explain the sign; nearly all actives have a fitted effect of over 65% in size; many hits overshoot -100%
# Target sequence (P80244 whole entry, looked up): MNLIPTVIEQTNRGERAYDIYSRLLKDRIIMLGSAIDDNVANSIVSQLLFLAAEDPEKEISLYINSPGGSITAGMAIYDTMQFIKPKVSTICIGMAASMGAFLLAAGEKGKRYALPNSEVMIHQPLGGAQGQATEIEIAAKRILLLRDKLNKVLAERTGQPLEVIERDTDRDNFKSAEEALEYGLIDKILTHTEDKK
#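 Buffer: 100 mM Tris/HCl pH8, 100 mM KCl, 0.05% low protease BSA, 2.5% glycerol, 0.01% Tween-20. ClpP 10 microg/mL final; 20 min RT; delta FRET normalized to ADEP and DMSO controls.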
# gsp agonist: agonists of gsp mutant (McCune-Albright syndrome); Potency, µM (top dose mostly 76.9 µM), inactives show at the highest dose activation (cAMP increase), most hits filed as activators; AID 624287; gsp mutant cells, cAMP HTRF, 30 min; control for the full effect not named in the record; actives 0.13% (n = 340,000); active = well fitted activation curve with a large enough effect; inconclusive = small, poorly fitted or top-dose-only effect, or another doubt; inactive = no such curve, though single readings can be large or run the other way; cell line not stated here;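 further: phosphodiesterase inhibitor Ro 20-1724 added with compounds to block cAMP breakdown; potency means the concentration at half of the fitted maximal effect; nearly all actives have a fitted effect of over 60% in size; about a fifth of the inactives were tested at one dose only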
#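 Cells in DMEM/10% FBS with G418 were pretreated with compounds in DMSO plus […] (300 uM stock) for 30 min at 37C. cAMP was measured by HTRF (cAMP-d2 plus anti-cAMP antibody-K) after 30 min at room temperature.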
# * = called active by the depositor; ? = inconclusive; . = no result given; & = joins results of further samples; [ ] = remark or other dose.
SMILES,gsp antag,Sfp inh,Menin-MLL FL inh,D2 ag,PINK1 modulator,ClpP mod,gsp agonist
COc1ccc(CN(Cc2cccn2C)S(=O)(=O)c2ccccc2)cc1,-7.5%,-2.5%,12.5,1.5,0.0%,-0.4%,21.3%[15.4 µM]
O=C(CN1C(=O)c2ccccc2C1=O)NCC(=O)OCC(=O)c1ccc(Br)cc1,0.0%,8.9%,-0.7,-6.9,-0.8%,-6.7%,4.5%
CC(=O)Nc1ccc(S(=O)(=O)N(C)CC(=O)N/N=C/c2ccc(C(=O)O)cc2)cc1,2.8%,7.1%,0.4,2.1,0.9%,0.4%,-30.4%[inhibitor]
CCNC(=O)COc1ccc(OCc2ccccc2)cc1,-4.5%,16.5%,-3.2,0.8,2.4%,.,-8.5%
COc1ccccc1NS(=O)(=O)c1ccc(C)c(C(=O)N2CCCC2)c1,-0.1%,.,.,3.1,1.9%,0.1%,-24.9%
COc1ccccc1NC(=O)C1CCN(S(=O)(=O)c2ccc3c(c2)NC(=O)CO3)CC1,-3.9%,11.4%,.,1.4,-1.5%,-2.2%,-25.0%
CS(=O)(=O)Nc1cccc(NC(=O)C2Cc3c(-c4cccc(F)c4)ccnc3O2)c1 (stereo not drawn),.,.,.,-0.5,-0.3%,-2.4%,.
O=C(Cc1ccc(Cl)c(Cl)c1)NNC(=S)NCC1CCCO1 (stereo not drawn),3.6%,11.4%,.,-6.4,2.0%,-2.0%,-30.7%[inhibitor]
Cc1cc(Br)ccc1NC(=O)CN(C)C(=O)c1ccc2ccccc2n1,-3.1%,.,.,5.8,-0.5%,-1.6%,17.3%
CC(C)(C)C(=O)Oc1cccc(Nc2ncnc3ccccc23)c1,0.2%,10.7%,-1.0,1.5,2.9%,.,22.8%
COc1cccc(-n2c(Cc3cc(=O)[nH]c(=O)[nH]3)nnc2SCC(=O)Nc2ccccc2)c1,12.0%,5.0%,2.9,-1.6,-1.7%,-1.2%,-80.4%[inhibitor]
Cc1c(Cl)cccc1NC(=O)CCC(=O)N/N=C/c1ccc[nH]1,6.9%,44.7µM*,4.1,1.1,?,-2.6%,-36.0%[inhibitor]
CCOC(=O)Cc1csc(N(C)C)n1,-8.8%,-2.1%,?,0.5,2.1%,1.3%,-10.7%
Cc1cc(C)cc(N(C(=O)CNS(=O)(=O)c2ccccc2)C(C(=O)NCc2ccccc2)c2ccc(C)o2)c1 (stereo not drawn),-6.2%,6.9%,-5.9,-3.2,3.2%,1.6%,8.7%
S=C(Nc1ccccc1)Nc1ccccc1-n1cccc1,15.0%,-27.1%,6.8,-8.0,2.1%,-22.4%,?
O=C(CNC(c1ccccc1)c1ccccc1)Nc1ccc(F)cc1,-0.1%,-4.6%,4.8,-5.7,0.1%,-1.0%,1.8%[15.4 µM]
Cn1ncc2c(c(SCc3ccc(Cl)cc3Cl)nn2C)c1=O,3.6%,25.1µM*,3.7,-1.8,5.4%,.,?
O=C(Cc1ccccc1)NNC(=O)Cc1ccccc1,2.9%,5.8%,-2.2,9.2,-0.1%,.,18.3%[15.4 µM]
Cc1ccccc1NS(=O)(=O)c1nnc(NC(=O)c2ccccc2C)s1,-5.8%,8.5%,-3.8,-5.3,1.4%&0.7%,-2.6%&2.2%,28.8%
O=C(CNC1CCCCC1)Nc1cccc(C(F)(F)F)c1,-6.6%,8.4%,-4.6,6.3,14.8%,-0.5%,9.8%[15.4 µM]
CC(=O)Nc1ccccc1OCC(=O)NC(C)c1ccccc1 (stereo not drawn),19.5%,4.9%,2.1,0.4,0.8%,1.5%,-7.1%
CCc1ccccc1Oc1ccc(S(=O)(=O)N2CCN(C)CC2)cn1,15.2%,.,.,-4.0,-1.0%,0.1%,-6.9%[15.4 µM]
CCN(CC(=O)Nc1cccc(OC)c1)C(=O)C1CC(=O)N(Cc2ccccc2Cl)C1 (stereo not drawn),.,.,.,-2.8,1.1%,-4.2%,-11.3%
Cc1cc(C(=O)CSc2nc(N)cc(N)n2)c(C)n1-c1cccc(F)c1,5.3%,-19.4%,1.5,-0.1,-1.6%,-3.7%,5.5%[15.4 µM]
C[C@@H]1CN([C@@H](C)CO)C(=O)CCCn2nncc2CO[C@@H]1CN(C)S(=O)(=O)c1ccc(C#N)cc1,.,.,.,-0.9,1.3%,0.2%,?
NC(=S)N/N=C/c1ccc([N+](=O)[O-])cc1,2.7%,-12.6%,-1.1,11.8,-2.7%,.,?
CCN(c1ccc(NC(=O)CCc2nc3sc4c(c3c(=O)[nH]2)CCCC4)cc1)C(C)C,1.1%,.,.,-6.9,?,1.3%,2.8%
O=C(N/N=C/c1ccccc1O)C(=O)N1CCCCCC1,-5.1%,23.4%,.,-0.9,-1.3%,-2.9%,?
CCOc1ccc(Nc2oc(-c3cccs3)nc2C#N)cc1,1.5%,-14.2%,4.7,?,8.2%[38.3 µM],17.8µM*,5.7%
Cc1cc(Cl)ccc1OCC(=O)Nc1ccc(CN2CCOCC2)cc1,-4.0%,14.9%,-0.5,1.0,-0.6%,-0.8%,0.4%
CCC(=O)c1ccc(OCC(O)CN2CCN(S(=O)(=O)N3CCCCC3)CC2)cc1 (stereo not drawn),1.1%,15.2%,4.1,-2.0,0.9%,1.8%,-7.3%
COc1ccc(-c2nc(NC(=O)CSc3nnc4ccccn34)ns2)cc1,-5.8%,-6.0%,0.4,-3.1,-1.1%,?,28.7%
CCOC(=O)C(C#N)=C1CCN(Cc2ccccc2)CC1,-2.9%,11.3%,?,-4.1,0.3%,-2.6%,-19.2%
O=C(c1ccc(NC2=NC3CS(=O)(=O)CC3S2)cc1)N1CCc2ccccc2C1 (stereo not drawn),-6.0%,0.9%,-1.3,-1.8,0.1%,-0.6%,5.0%
CC(C)CN1CC2(CCN(C(=O)c3csnn3)CC2)C1,.,-21.7%,-0.7,.,-0.6%,.,.
C[C@@H](CSc1ccccc1)CN1CC[C@H](NC(=O)OCc2ccccc2)CCC1=O,-14.7%,3.5%,2.3,1.4,-0.1%,-4.4%&0.2%,4.3%
CN(C)c1ccc(Nc2nc(N)c([N+](=O)[O-])c(N3CCOCC3)n2)cc1,-11.3%,?,-0.2,2.0,-1.3%,-4.6%,-23.4%
O=C(NCCN1CCOCC1)c1cnn2c(-c3ccccc3)cc(-c3ccccc3)nc12,-7.0%,-13.8%,7.3,-7.2,-4.2%[38.3 µM],?,9.8%
CC(C)(C)OC(=O)NCc1ccc(NC(=O)c2nc[nH]c2C(=O)NCCCCNC(=O)c2[nH]cnc2C(=O)Nc2ccc(CNC(=O)OC(C)(C)C)cc2)cc1,-0.1%,.,.,1.5,-0.7%,16.0%,.
COc1ccc(-c2noc(CN3CCCCC3c3nccn3C)n2)cc1 (stereo not drawn),15.9%,-16.8%,-2.2,-2.4,1.6%,-2.1%,7.4%
O=C(CCNS(=O)(=O)c1ccccc1F)NCc1ccc2c(c1)OCO2,5.3%,21.6%,2.0,-0.6,-0.3%,-4.4%,0.5%
COc1ccc(S(=O)(=O)N2CCOC2CNC(=O)C(=O)NCCc2ccccc2OC)cc1C (stereo not drawn),-6.1%,9.7%,-0.3,-4.7,1.8%,-2.3%,-24.2%
Cc1cn([C@H]2C[C@H](O)[C@@H](CCC(=O)NCc3ccco3)O2)c(=O)[nH]c1=O,12.9%,.,.,-1.2,0.0%,-22.5%,.
O=C(NCCN1CCOCC1)c1ccc(=O)oc1,7.8%,-5.2%,-0.5,-3.8,0.2%,2.4%,-0.3%
O=C(CN1CCCCC1)Nc1cc(Cl)ccc1Oc1ccccc1,-14.4%,-0.9%,-0.8,-2.0,?,.,-1.9%[15.4 µM]
O=C(Cc1ccc(-n2c(=O)c3sccc3n(CC(=O)Nc3ccccc3)c2=O)cc1)NCc1ccco1,3.2%,0.3%,1.8,-2.5,0.9%,.,-28.2%[15.4 µM]
Cc1csc(NC(=O)CCc2c(C)nc3cc(-c4ccc(Cl)cc4)nn3c2C)n1,-5.8%,-19.8%,22.2,0.8,3.7%,?,-4.8%
Cc1cccc(OCC(=O)Nc2ccc3c(c2)C(=O)NC3=O)c1,-14.2%,-1.9%,.,3.2,0.8%,-1.2%,-18.8%
Cc1cc(C)cc(NC(=O)Nc2ccc3c(c2)N(C)C(=O)CS3)c1,?,-4.0%,-0.5,-3.9,?,0.9%,-12.1%
Cc1cc(C)cc(NC(=O)C2C3C=CC4(O3)C2C(=O)N(CCN2CCCCC2)C4C(=O)NC2CCCCC2)c1 (stereo not drawn),-2.0%,7.5%,6.8,-8.1,4.1%,0.7%,-6.5%[15.4 µM]
COc1ccc(/C=N/NC(=O)c2ccc(=O)n(C)c2)cc1OC,5.2%,4.6%,2.7,-0.6,-0.3%,.,-1.3%[15.4 µM]
CCOc1cc(S(=O)(=O)NCCc2cccc(C)c2)c(OCC)cc1-n1cnnn1,3.2%,?,7.1,-1.4,4.1%[38.3 µM],31.6µM*,2.3%
CN(C)P(=O)(Nc1cccc2ccccc12)Nc1cccc2ccccc12,-19.5%,.,.,-3.3,6.6%,?,-46.0%[inhibitor]
CC1(c2ccccc2Cl)NC(=O)N(CC(=O)N2CCc3ccccc3C2)C1=O (stereo not drawn),-14.3%,.,.,2.4,-1.7%,.,-4.4%[15.4 µM]
CCOc1ccc(S(=O)(=O)N2CCN(CN3C(=O)CC4(CCCC4)C3=O)CC2)cc1,3.3%,.,.,-3.9,-1.1%,1.0%,-61.6%[inhibitor]
Cc1ccc(C)c(CC(=O)N2CCCC(c3cc(C(=O)NCc4cccnc4)no3)C2)c1 (stereo not drawn),.,.,.,-6.8,0.2%,-0.9%,.
O=[N+]([O-])c1c(Nc2cccc(O)c2)cc(Cl)c2nonc12,35.5µM*,56.2µM*,-1.2,-6.6,-0.5%,.,0.9%
COc1cccc(/C=C/C(=O)c2cccc([N+](=O)[O-])c2)c1OC,-7.9%,?,0.7,-5.7,-0.7%,-2.0%,26.4%[15.4 µM]
CC(=O)c1c[nH]c(C(=O)NCc2ccccc2Cl)c1,-4.8%,9.2%,-5.4,-1.4,1.0%,-1.4%,28.7%
CC1(C)CC(=O)/C(=C(\O)Cc2ccccc2)C(=NCCCCCC(=O)O)C1,0.0%,1.5%,3.5,-3.8,0.1%,2.0%,-14.6%[15.4 µM]
